Screening data as filed in PubChem.
Ba CapD inh: inhibitors of Bacillus anthracis CapD enzyme; purified CapD enzyme, fluorescence intensity read-out; active compounds read low; some hits fall short of the stated cut; z-score (test concentration not listed); 140,000 tested, 0.23% active; AID 492967;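 active = z-score under -4 in either of two replicates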;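 note: stock transfer was 100 nL into about 40 µL; score is relative to mean and spread of the plate; one replicate is shown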
AID504770: E. coli YBA685 growth inhibition, screen for V. cholerae RctB inhibitors; E. coli YBA685 rctB-dependent plasmid, OD600 growth, 3 h; active compounds read low; z-score (concentration not given with the values); 130,000 tested, 0.27% active; AID 504770;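 active = z-score under -2 on both plates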;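 note: wells of about 30 µL received 100 nL stock; score is relative to mean and SD of the test wells; the first replicate is given; strong numbers were not always called active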
Active calls of the source: *; x = no result given.

A first look (2 entries):
SMILES	Ba CapD inh	AID504770
Cc1cc(C)c2c(CC(=O)Nc3c(C(=O)c4ccccc4)oc4ccccc34)coc2c1	-0.475	0
Cc1ccc(S(=O)(=O)/N=S(\C)c2ccc(C(F)(F)F)cn2)cc1 (stereo not drawn)	-0.455	-0.45

Main list, previewed entries included:
SMILES	Ba CapD inh	AID504770
Cc1cc(C)c2c(CC(=O)Nc3c(C(=O)c4ccccc4)oc4ccccc34)coc2c1	-0.475	0
Cc1ccc(S(=O)(=O)/N=S(\C)c2ccc(C(F)(F)F)cn2)cc1 (stereo not drawn)	-0.455	-0.45
COc1ccc(CCNC(=O)CSc2ccc(-c3ccco3)nn2)cc1	x	-0.25
COc1ccc(N=Cc2ccc(O)c3c2OC(N)=C(C#N)C3c2cccc([N+](=O)[O-])c2)cc1 (stereo not drawn)	-0.73	x
c1ccc(-n2nnnc2Sc2ncnc3ccccc23)cc1	x	-0.15
CC(C)(C)OC(=O)CC(NC(=O)CNC(=O)CNC(=O)c1ccc([N+](=O)[O-])cc1)C(=O)OC(C)(C)C (stereo not drawn)	-1.19	x
CCn1nc(C(=O)Nc2ccc(S(=O)(=O)Nc3ncccn3)cc2)c2ccccc2c1=O	x	-0.5
Cc1cc(C)nc(/N=C(\N)N2CCc3ccccc32)n1	x	-0.65
O=C(CSc1ncnc2ccccc12)NCC1CCCO1 (stereo not drawn)	-0.99	0.3
COc1ccc(C(=O)NC(=S)Nc2ccc3[nH]c(=O)[nH]c3c2)cc1OC	68	0.7
C=CCNC(=O)c1cccc(OC)c1	x	-0.8
CCOC(=O)COC1=C(c2ccccc2)C(=O)c2ccccc2C1=O	-0.87	1.75
COc1cccc(CN(C)S(=O)(=O)c2ccc(C)cc2)c1	x	-0.7
NNc1nc(N2CCOCC2)nc(N2CCOCC2)n1	x	-0.65
CCc1ccc(C2CC(c3ccccc3)=NN2C(=O)CCCC(=O)O)cc1 (stereo not drawn)	-0.54	0
CCCOc1cccc2c1CCN(CC)C2=O	1.78	-0.5
CC1CCCCC1NC(=O)c1cnn2c(C(F)(F)F)cc(-c3ccccc3)nc12 (stereo not drawn)	-0.87	0.65
O=C1OCC2=C1C(c1ccc3c(c1)OCO3)CC(=O)N2c1ccccc1 (stereo not drawn)	x	0.95
CCOc1ccc(N=Nc2c(C)n[nH]c2C)cc1	x	-0.1
C=CCc1cc(/C=C2\C(=O)NC(=S)N(c3ccc(OCC)cc3)C2=O)cc(OC)c1OCC(=O)O	-0.635	x
C=CCn1c(-c2ccc(Cl)cc2Cl)nn(C2CC(=O)C3OCC2O3)c1=S (stereo not drawn)	-0.315	x
O=c1ccc2cc(N=Cc3cc(Cl)cc(Cl)c3O)ccc2o1	0.44	-0.6
O=C(Nc1cccc(Cl)c1N1CCCCC1)c1cccc([N+](=O)[O-])c1	-0.395	x
COC(=O)C1=C(C(=O)OC)SC(=C2C(=S)C(C)(C)N(C(=O)c3cccc([N+](=O)[O-])c3)c3ccc(OC)cc32)S1	-0.125	x
CCN(CC)c1nc(C)nc2sc(C(=O)N3CCC(C(N)=O)(N4CCCCC4)CC3)c(C)c12	-0.485	x
C=CCOc1ccc(/C=C2/C(=O)NC(=S)N(c3ccc(Cl)cc3)C2=O)cc1OC	-0.83	x
FC(F)(F)c1nn2cc(-c3ccc(Cl)cc3)nc2s1	0.35	x
N#Cc1c(/N=C/c2ccccc2O)sc2c1CCC2	0.41	0.8
CCOP1(=S)Oc2cc3c(cc2C(C(=O)OC)(C(F)(F)F)O1)OCO3 (stereo not drawn)	0.32	0.2
N#Cc1nccnc1N1CCN(C(=O)OCc2ccc3ccccc3c2)CC1	1	x
CN(C)S(=O)(=O)c1cccc(C(=O)Nc2nnc(Cc3ccccc3)s2)c1	x	0.65
Nc1nnc(CCC(CCc2nnc(N)s2)(CCc2nnc(N)s2)C(=O)c2ccccc2)s1	x	0.15
CCCc1c(C(=O)OCC)cnn1-c1ccc(Cl)cc1	-0.2	x
COCC(C)n1c(C)cc(C(=O)CSc2ccc(NC(C)=O)cc2)c1C (stereo not drawn)	x	-0.35
COc1ccc(C2C(C#N)=C(N)Oc3n[nH]c(-c4cccs4)c32)c(OC)c1OC (stereo not drawn)	-0.345	x
CN(C)C(=O)c1cn(-c2ccccc2)nc1-c1cccs1	0.675	-0.35
CCOc1ccc(N=C2NC(=O)S/C2=C\c2ccc(OC)cc2)cc1	0.12	-0.4
COc1cc(NC(=O)c2ccccc2)cc(OC)c1OC	-0.225	0.25
CN(Cc1ccccc1)S(=O)(=O)c1cc(F)ccc1CN1C(=O)c2cccnc2C1=O	0.155	0.2
O=C(NCc1ccccc1)C(=O)c1c(O)[nH]c2ccccc12	-0.58	0.35
CCc1nnc(SCC(=O)Nc2ccccc2C(F)(F)F)c2cc3occc3n12	0.72	-0.2
Cc1ccc(OCC(=O)N2c3ccccc3CC2C)cc1 (stereo not drawn)	-0.065	-0.25
O=C(c1cccs1)N1CCCc2ccccc21	x	-0.75
CCCn1c(=NC(=O)CCS(=O)(=O)c2ccccc2)sc2cc(S(N)(=O)=O)ccc21	x	1.55
CC(C)c1ccc(NC(=O)COc2ncnc3cc(Cl)ccc23)cc1	-0.035	0.05
CC(O)Cn1c(=S)[nH]c2ccc(Br)cc2c1=O (stereo not drawn)	x	-0.55
Cc1ccc(C)c(N2CCN(C(=O)c3c[nH]c4ccc(S(=O)(=O)N5CCC(C)CC5)cc4c3=O)CC2)c1	7.38	x
CCc1ccc(CC)c(S(N)(=O)=O)c1	-1.12	2.8
O=C(CCN1CCCCC1)Nc1nc(-c2ccc(Cl)cc2)cs1	-0.025	-1.15
Cn1ncc2c1ncn1nc(Cc3ccccc3)nc21	0.525	-2.9
(more compounds)
SMILES	Ba CapD inh	AID504770
CCCCOC(=O)C1=C(C)NC2=C(C(=O)CC(c3ccccc3)C2)C1c1ccco1 (stereo not drawn)	9.93	-0.05
c1ccc2c(c1)oc1c(NCCCCNc3ncnc4c3oc3ccccc34)ncnc12	x	0.05
Cc1ccc(C2=N/C(=C\c3ccc(N(C)C)cc3)C(=O)O2)cc1[N+](=O)[O-]	0.32	x
FC(F)(F)c1cc(C(F)(F)F)c2ccc(Nc3ccccc3)nc2n1	-0.445	x
C=CCN(C(=O)c1ccccc1OCc1c(C)noc1C)c1nc2c(s1)CCCC2	x	0.4
COC(=O)c1c(N2C(=O)Nc3ccccc3N2O)sc(C)c1C	-2.64	2.05
Cc1ccc2c(c1)c(-c1ccccc1)c(-c1ccccc1)n2CC(O)CN1C(=O)c2ccccc2S1(=O)=O (stereo not drawn)	0.66	x
CCOC(=O)N1CCC(NC(=O)c2cc(Sc3ccc(Cl)cc3)nc3ccccc23)CC1	0.335	x
CCCN1CCC(N(C(=O)CCC(=O)O)C2CC2)CC1	-0.365	x
CCOC(=O)C(Sc1nnnn1-c1ccc(Cl)cc1)c1ccccc1 (stereo not drawn)	x	0.35

Reformatted with values under each structure: entries from further up.
Under each structure: Ba CapD inh | AID504770
- Cc1cc(C)c2c(CC(=O)Nc3c(C(=O)c4ccccc4)oc4ccccc34)coc2c1
  -0.475 | 0
- Cc1ccc(S(=O)(=O)/N=S(\C)c2ccc(C(F)(F)F)cn2)cc1 (stereo not drawn)
  -0.455 | -0.45
- COc1ccc(CCNC(=O)CSc2ccc(-c3ccco3)nn2)cc1
  x | -0.25
- COc1ccc(N=Cc2ccc(O)c3c2OC(N)=C(C#N)C3c2cccc([N+](=O)[O-])c2)cc1 (stereo not drawn)
  -0.73 | x
- c1ccc(-n2nnnc2Sc2ncnc3ccccc23)cc1
  x | -0.15
- CC(C)(C)OC(=O)CC(NC(=O)CNC(=O)CNC(=O)c1ccc([N+](=O)[O-])cc1)C(=O)OC(C)(C)C (stereo not drawn)
  -1.19 | x
- CCn1nc(C(=O)Nc2ccc(S(=O)(=O)Nc3ncccn3)cc2)c2ccccc2c1=O
  x | -0.5
- Cc1cc(C)nc(/N=C(\N)N2CCc3ccccc32)n1
  x | -0.65
- O=C(CSc1ncnc2ccccc12)NCC1CCCO1 (stereo not drawn)
  -0.99 | 0.3
- COc1ccc(C(=O)NC(=S)Nc2ccc3[nH]c(=O)[nH]c3c2)cc1OC
  68 | 0.7
- C=CCNC(=O)c1cccc(OC)c1
  x | -0.8
- CCOC(=O)COC1=C(c2ccccc2)C(=O)c2ccccc2C1=O
  -0.87 | 1.75
- COc1cccc(CN(C)S(=O)(=O)c2ccc(C)cc2)c1
  x | -0.7
- NNc1nc(N2CCOCC2)nc(N2CCOCC2)n1
  x | -0.65

Other structures
SMILES	Ba CapD inh	AID504770
O=C(CN1C(=O)/C(=C\c2ccc(C(F)(F)F)cc2)Sc2ccccc21)N1CCc2ccccc2C1	0.61	-0.35
CCOC(=O)c1c(CSC(=N)N)n(-c2ccccc2)c2cc(Br)c(OC(C)=O)cc12	-0.9	-0.95
O=C(O)C(c1ccccc1)N1CCOCC1 (stereo not drawn)	x	-0.25
O=C(O)CCC(=O)N1CCN(C(=O)c2ccco2)CC1	x	2.45
CCC1SC(=Nc2ccccc2)N(S(=O)(=O)c2ccccc2)C1=O (stereo not drawn)	-1.27	x
COCCCNc1c2c(nc3ccccc13)CCC2	x	1.05
CON(C)S(=O)(=O)c1cccc(C(=O)NC2CCSc3ccccc32)c1 (stereo not drawn)	x	-1.2
CCOC(=O)c1nn(-c2ccc(Cl)cc2)c(=O)c2c(N)scc12	-1.33	-0.7
CN1CN=C(SCc2ccc(Cl)c(Cl)c2)NC1	-0.275	-2.9
CC1c2ccsc2CCN1S(=O)(=O)c1ccccc1 (stereo not drawn)	0.2	-0.25
S=C(Nc1ccccc1)N1CCn2c(nc3ccccc32)C1	-0.67	-0.9
COC(CN1C(=O)C2C3C=CC(C3)C2C1=O)OC (stereo not drawn)	-0.22	-0.25
Cc1ccc(S(=O)(=O)N2CCN(C(=O)C3C4C=CC(C4)C3C(=O)O)CC2)cc1C (stereo not drawn)	-0.89	-0.85
Cc1ccc(NC(=O)c2cc3ccccc3o2)c(C)c1	-0.385	-1.45
CN1CCc2nc(SCC(=O)OC(C)(C)C)c(C#N)c(-c3cccs3)c2C1	-0.365	x
CC1CC(C)(C)NC(=S)N1CCC(=O)Nc1ccc(Cl)cc1 (stereo not drawn)	0.48	x
CCOC(=O)c1sc(-c2cccc(Cl)c2)nc1O	-0.105	-0.4
O=c1c2ccccc2nc(CO)n1-c1ccc2c(c1)OCO2	x	1.6
N#Cc1cc(Sc2nc3ccccc3s2)c(-n2nnc3ccccc32)cc1C#N	0.9	0.5
CCCN(CCC)C(=O)C1Sc2nnc(C)n2NC1c1ccc(Cl)cc1 (stereo not drawn)	0.25	0.45
Clc1cc(Cl)c(Cl)c(Cl)c1Cl	-0.08	x
O=C(C1CCCN1S(=O)(=O)c1ccccc1)N1CCCCC1 (stereo not drawn)	0.02	-0.25
O=C(O)c1cccnc1Br	x	0.1
CCOC(=O)c1sc2ncnc(N3CCC4(CC3)OCCO4)c2c1C	3.19	x
CCOC(=O)c1ccc2c(c1)NC(CC(=O)Nc1ccc(F)cc1)C(=O)N2CC (stereo not drawn)	x	-0.05
Cc1ccc(-c2nn(C3OC(CO)C(O)C3O)c(=S)o2)cc1 (stereo not drawn)	0.43	-0.3
CC1CCCC(C)N1C(=O)CN1c2cccc3cccc(c23)S1(=O)=O (stereo not drawn)	x	0.5
COC(=O)C1CSCN1S(=O)(=O)c1ccccc1 (stereo not drawn)	x	-1.1
CCc1ccc(C(=O)OCCN2C(=O)c3ccccc3C2=O)cc1	x	0.45
COc1ccc(-c2n[nH]c(=S)n2/N=C/c2c(C)nn(-c3ccccc3)c2C)cc1OC	0.1	0.9
Cn1c(=NC(=O)CS(=O)(=O)c2ccccc2)sc2ccccc21	x	0
COc1ccc(CSC2=C(C#N)C(=O)NC3(CCCCC3)S2)cc1	-2.36	1.65
O=C(NCCn1ccc2ccccc21)c1ccc(S(=O)(=O)N2CCCCC2)cc1	x	0.1
O=C(CSC1=NCCS1)Nc1ccnc2ccccc12	x	-0.4
C=CCN1CC(C(N)=O)Oc2ccccc21 (stereo not drawn)	x	-0.2
CCc1c(-c2ccccc2)[nH]c2nc3c(c(=O)n(C)c(=O)n3C)n12	0.86	-0.15
CC1(C)CCc2cc(CN3CCN(c4ccc(F)cc4)CC3)ccc2O1	2.11	-0.4
Cc1ccc(C(=O)Cn2nnc(-c3ccccc3)n2)c(C)c1	x	0.8
Cc1ccc(S(=O)(=O)N=S2(=O)CCCS(=O)(=O)C2)cc1 (stereo not drawn)	-0.68	x
O=C(CN1C(=O)S/C(=C/c2ccc(N3CCCCCC3)o2)C1=O)N1CCCCCC1	x	0.3
Nn1c(C2CCCO2)n[nH]c1=S (stereo not drawn)	x	-0.05
COc1ccccc1CN(C(=O)c1noc2c1CCc1sccc1-2)C1CCN(C)CC1	-2.28	1.1
CS(=O)(=O)N(CCC#N)Cc1ccc(/C=C2\C(=O)Nc3ccccc32)o1	x	-0.55
COc1ccc(OCC(O)CNC(=O)C2=Cc3cc(Cl)ccc3OC2)cc1 (stereo not drawn)	0.545	-0.7
CC(C)S(=O)(=O)c1csc(C(=O)OCC(=O)c2ccccc2)c1N	0.61	-0.05
Cc1nn(-c2ccccc2)c2c1N(C(=O)CCC(=O)N1CCN(c3ccccc3F)CC1)CCS2	0.025	0.55
Cc1oc(S(=O)(=O)N2CCOCC2)cc1C(=O)O/N=C(\N)c1ccc(C(C)(C)C)cc1	0.09	-1.5
COc1ccc(NC(=O)c2ccc3c(c2)NC(=O)c2ccccc2S3)cc1Cl	0.335	2.35
Fc1ccc(Nc2nc3nonc3nc2N2CCCC2)cc1	-1.92	x
CC(C(=O)O)n1cnc2c1c(=O)[nH]c(=O)n2C (stereo not drawn)	-0.075	-0.85
Next section
SMILES	Ba CapD inh	AID504770
COC(=O)C1C(=O)NC(SC)=C(C#N)C1c1ccc(Cl)cc1 (stereo not drawn)	-0.11	1.55
CCNc1nc(N2CCCC2)nc(N2CCCC2)n1	x	-0.15
CC12CCC3C(CC[C@H]4CC5(CCC34C)OCCO5)C1CCC2O (stereo partly drawn)	-0.115	x
CCCCn1c(CNC(=O)COc2ccccc2)nnc1SCC(=O)Nc1sc2c(c1C(=O)OCC)CCC2	-0.285	x
FC(F)(F)c1ccc(=S)[nH]c1	x	-0.15
